UCH37 inh = inhibitors of human deubiquitinating enzyme UCH37; purified proteasome/UCH37, Ub-AMC cleavage fluorescence; Q9Y5K5; AID 588478; actives 0.33% (n = 330,000); inhibition, % (no concentration beside the values);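 active = mean of two replicates above 20%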;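 also: 0% = compound-free wells with enzyme and 100% = wells lacking proteasome; stock transfer was 100 nL into about 20 µL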
Target sequence (Q9Y5K5 whole entry, looked up): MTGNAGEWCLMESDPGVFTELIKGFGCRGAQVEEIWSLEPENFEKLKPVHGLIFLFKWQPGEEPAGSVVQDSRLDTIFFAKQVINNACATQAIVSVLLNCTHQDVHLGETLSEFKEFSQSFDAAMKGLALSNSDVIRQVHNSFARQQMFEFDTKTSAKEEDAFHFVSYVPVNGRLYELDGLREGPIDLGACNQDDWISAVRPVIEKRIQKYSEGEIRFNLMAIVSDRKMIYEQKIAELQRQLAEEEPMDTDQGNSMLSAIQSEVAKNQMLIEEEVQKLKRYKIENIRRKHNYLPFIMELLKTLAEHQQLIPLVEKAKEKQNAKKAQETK
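Signal – fluorescence, ex 355 nm, em 460 nm · System – Proteasome-bound UCH37 · Input – 0.15 nM proteasome as dispensed · Timing – 30 min preincubation with enzyme, 25 min cleavage at room temperature · Read-out basis – percent inhibition of cleavage signal versus uninhibited and no-proteasome wells · Medium – Tris-HCl pH 7.4 with ATP-MgCl2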
Ecoli growth = E. coli growth inhibition; Escherichia coli growth, OD600, 23 h; hits give low values; OD600 absorbance (no concentration beside the values); actives 0.21% (n = 330,000); AID 1053175;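 active = OD600 absorbance below the run mean of sample wells minus 3.6 SD, in any replicate, cut at about 0.56 in these data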;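 also: stock transfer was 300 nL into about 60 µL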
Numbers without * were called inactive; i = inactive. Only part of the results is shown; count on the stated rates, not on these rows.

SMILES	UCH37 inh	Ecoli growth
CC(=NOC(=O)c1ccc(Cl)cc1)c1sc(-c2ccccc2)nc1C	-66	0.75
O=C(NN=Cc1cccc(O)c1)c1ccc(-n2cnnn2)cc1	-4.2	0.71
COc1ccc(CC(=O)NN=Cc2cccn2-c2ccc([N+](=O)[O-])cc2)cc1OC	5.9	0.64
N/C(=N\N=Cc1cccs1)SC1CC(=O)N(c2ccc(Br)cc2)C1=O (centres undefined)	5.9	0.63
CCOc1ccc(S(=O)(=O)NN=C(C)Cc2ccc(OC)cc2)cc1	2.5	0.69
COCc1cc(C)nc(OCC(=O)NN=Cc2ccc(-c3cc([N+](=O)[O-])ccc3C)o2)c1C#N	14	0.7
CC(Sc1ccccc1)C(=O)NN=Cc1cccnc1 (centres undefined)	3.9	0.71
COc1ccc(/C=C/C(=O)NCC(=O)NN=C(C)c2ccc(Cl)cc2)cc1	2.3	0.66
CC(=NNC(=O)c1ccc(Br)s1)c1ccncc1	1.6	0.66
CC(=NNc1ccc([N+](=O)[O-])cc1)c1ccc(-n2nncc2C)cc1	-0.4	0.66
CCOc1cc(C=NNC(=O)OC)ccc1OC(=O)c1ccco1	3.3	0.7
CCN(Cc1ccccc1)c1ccc(C=NNS(=O)(=O)c2cccc([N+](=O)[O-])c2)cc1	1.8	0.72
COc1cc(C=NNC(=O)c2ccc([N+](=O)[O-])cc2Cl)cc(Br)c1O	14	0.73
CC(=NNC(=O)C(C)n1nc(C)c([N+](=O)[O-])c1C)c1ccccc1O (centres undefined)	-0.3	0.69
Cc1oc(N=Cc2cccc([N+](=O)[O-])c2)c(C#N)c1C	4.1	0.72
CC(=NNS(=O)(=O)c1ccc(C)cc1)c1ccc(C)s1	-0.1	0.7
CC(C)c1cc(C(=O)NN=Cc2ccoc2)c(O)c(C(C)C)c1	-32	0.68
Cc1nn(Cc2ccc(F)cc2)c(Cl)c1C=NNC(=O)c1cccnc1	0.7	0.68
C=CCOc1ccccc1C=NNC(=O)c1ccc(Cl)cc1Cl	-0.3	0.68
CC(=O)Nc1ccc(C(=O)NN=Cc2ccccc2OCc2ccccc2)cc1	1.5	0.68
CC(CC(=O)Nc1ccc(N(C)C)cc1)=NNC(=O)c1ccc(F)cc1	5.0	0.7
Cc1ccc(OCC(=O)NN=Cc2ccco2)cc1	-0.8	0.65
CCOc1cccc(C=NN2CCN(c3ccc(Cl)cc3)CC2)c1O	3.9	0.69
Cc1ccc(C2C(C(=O)c3sc(-c4ccccc4)nc3C)=C(O)C(=O)N2CCN(C)C)o1 (centres undefined)	12	0.7
C=CCn1cc(C=NNC(=O)COc2cccc3cccnc23)c2ccccc21	3.6	0.72

Fetched by compound from above:
SMILES	UCH37 inh	Ecoli growth
CC(CC(=O)Nc1ccc(N(C)C)cc1)=NNC(=O)c1ccc(F)cc1	5.0	0.7
Cc1oc(N=Cc2cccc([N+](=O)[O-])c2)c(C#N)c1C	4.1	0.72
O=C(NN=Cc1cccc(O)c1)c1ccc(-n2cnnn2)cc1	-4.2	0.71
CCOc1cc(C=NNC(=O)OC)ccc1OC(=O)c1ccco1	3.3	0.7
CC(=O)Nc1ccc(C(=O)NN=Cc2ccccc2OCc2ccccc2)cc1	1.5	0.68
COc1cc(C=NNC(=O)c2ccc([N+](=O)[O-])cc2Cl)cc(Br)c1O	14	0.73
Cc1ccc(OCC(=O)NN=Cc2ccco2)cc1	-0.8	0.65

Carrying on.
SMILES	UCH37 inh	Ecoli growth
COc1ccc(S(=O)(=O)Oc2cccc(C=N/N=C3/NC(=O)C(CC(=O)O)S3)c2)cc1 (centres undefined)	8.5	0.69
Cn1c(SCC(=O)NN=Cc2cccnc2)nnc1-c1ccccc1	4.9	0.7
CCn1nc(C)c(C=NNC(=O)Cc2ccc(Cl)cc2)c1C	-15	0.69
COc1ccccc1NC(=O)CC(C)=NNC(=O)c1ccccn1	3.2	0.68
CC(C)(C)NN=Cc1cc(Cl)cc([N+](=O)[O-])c1O	6.3	0.68
O=C(NN=CCCc1ccccc1)C1CCCCC1	0.6	0.72
COc1ccc(C=NNC(=O)c2ccn[nH]2)cc1COc1ccc([N+](=O)[O-])c(C)c1	8.0	0.69
Cc1ccc(-c2cc(-c3ccccc3)nc(NN=Cc3cccnc3)n2)cc1	-20	0.69
CCC(=O)Nc1nonc1-c1nc2ccccc2n1Cc1ccc(Cl)c(Cl)c1	-13	0.73
COCCCNC(=S)NN=Cc1ccc2ccccc2c1	5.1	0.62
CC(=O)Nc1ccc(C=NNS(=O)(=O)c2cc(C)ccc2C)cc1	4.9	0.71
COc1ccc(C=NN(C)C2=NS(=O)(=O)c3ccccc32)cc1	-453	0.67
O=C(NN=Cc1ccc(N2CCOCC2)cc1)c1ccccn1	12	0.72
COC(=O)NN=Cc1c(C)cc(C)cc1C	2.0	0.73
COC(=O)c1ccc(C=NNC(=O)CC(=O)NC(C)C)cc1	4.6	0.66
Cc1cccc(C)c1OCC(=O)NN=C/C=C/c1ccco1	2.4	0.68
CC(=NOC(=O)c1ccc(C)cc1)c1ccc(N2C(=O)C3CCCCC3C2=O)cc1 (centres undefined)	0.3	0.76
CC(=O)Nc1ccc(C(C)=NNc2nc(N3CCOCC3)nc(N3CCOCC3)n2)cc1	2.9	0.68
Oc1ccc(C=NNc2ncnc3c2ncn3Cc2ccccc2)cc1O	1.5	0.67
O=C1N/C(=N/N=Cc2ccccc2O)SC1Cc1ccc(F)cc1 (centres undefined)	-7.8	0.69
COc1cc(C=Nc2oc(-c3ccccc3)cc2C#N)ccc1O	1.0	0.65
CNC(=S)NN=Cc1c(C(=O)OC)cnn1-c1ccc(F)cc1F	9.1	0.71
CCn1c(SCC(=O)NN=C/C=C\c2ccccc2[N+](=O)[O-])nc2ccccc21	1.8	0.74
CCOC(=O)C1=C(C)n2c(sc(=Cc3cccc([N+](=O)[O-])c3)c2=O)=NC1c1ccc(O)c(OC)c1 (centres undefined)	2.2	0.74
Cn1c(=O)c2c(nc(NN=Cc3ccc(OC(=O)c4ccco4)cc3)n2Cc2ccccc2Cl)n(C)c1=O	-193	0.79
SMILES	UCH37 inh	Ecoli growth
O=C(NN=Cc1ccc(O)c([N+](=O)[O-])c1)C(O)(c1ccccc1)c1ccccc1	13	0.69
Cc1nc2c(n1O)CCCC2=NO	-0.5	0.69
Cc1c(C(=O)NN=Cc2ccncc2)nnn1-c1nonc1N	-1.9	0.67
Cc1ccc(OCC(=O)NN=Cc2ccc(-c3cccc(C(=O)O)c3)o2)c(C)c1	-27	0.7
Nc1c(C(=O)NCC2CCCO2)c2nc3ccccc3nc2n1N=Cc1ccncc1 (centres undefined)	2.5	0.72
[O-][N+]1=C2CCCC(=NO)C2=NC12CCCCC2	1.2	0.63
Cc1cccc(C2=NN(c3ccc(Br)cc3)[C@@H](C(=O)N3CCOC3=O)[C@@H]2c2ccc(Cl)cc2)c1	i	0.74
COc1cc(OC)c(OC)cc1C=NNC(=O)CC1C(=O)NN=C1C (centres undefined)	-60	0.71
COc1cc(C=NNC(=O)c2ccccc2)ccc1OS(=O)(=O)c1ccccc1	2.7	0.67
CC[C@]1(C(=O)OC)[C@H]2C(=O)N(Cc3ccccc3)C(=O)[C@H]2[C@H]2CN(C)C(=NC)N21	-0.3	0.69
COc1cccc(OCc2cc(C=NNC(=O)c3ccn[nH]3)ccc2OC)c1	2.2	0.76
S=c1[nH]nc(-c2ccccn2)n1N=Cc1ccccc1	1.9	0.69
COc1ccccc1/C=C/C=NNC(=O)CC1C(=O)NN=C1C (centres undefined)	6.2	0.64
CCOc1cc(C=NNC(=O)COc2ccc(Cl)cc2)ccc1OS(=O)(=O)c1ccccc1	2.5	0.71
CC(=NNC(N)=S)c1ccc2c(c1)OCCO2	3.2	0.66
Oc1oc(-c2ccccc2)nc1C=Nc1ccccn1	4.8	0.66
CC(C)Oc1cccc(C(=O)NN=Cc2ccoc2)c1	-1.7	0.69
Cn1cc(C=NNC(=O)c2ccc(C#N)cc2F)c2ccccc21	7.2	0.67
C[C@@H](N)C(=O)NCC1CCC(C(=O)N[C@@H](Cc2ccccc2)C(=O)O)CC1 (some centres undefined)	3.8	0.67
COc1cccc(C=NNC(=O)c2cnccn2)c1OC	8.5	0.63
Cc1ccc(C=Nn2c(-c3cccnc3)n[nH]c2=S)s1	4.2	0.65
O=C(O)COc1ccccc1C=NNC(=O)CNC(=O)c1ccc(F)cc1	2.1	0.73
O=C(Nc1ccc(Cl)cc1)C1C2CCC3C(CCC21)C3(Cl)Cl (centres undefined)	-0.7	0.77
CCOc1ccc(NN=C(C#N)C(N)=O)cc1	11	0.67
O=C(NN=Cc1cccc([N+](=O)[O-])c1)c1cc2ccccc2o1	1.1	0.67

Full records, looked up by structure.
`CCOc1cc(C=NNC(=O)COc2ccc(Cl)cc2)ccc1OS(=O)(=O)c1ccccc1` in the list: UCH37 inh: 2.5; Ecoli growth: 0.71
`CC(C)Oc1cccc(C(=O)NN=Cc2ccoc2)c1` in the list: UCH37 inh: -1.7; Ecoli growth: 0.69
`O=C(Nc1ccc(Cl)cc1)C1C2CCC3C(CCC21)C3(Cl)Cl` (centres undefined) in the list: UCH37 inh: -0.7; Ecoli growth: 0.77

Remaining list, next part:
SMILES	UCH37 inh	Ecoli growth
CC(=NNC(=O)c1ccc([N+](=O)[O-])c(C)c1)c1ccccc1Cl	-1.4	0.68
COc1ccc(N(CC(=O)NN=Cc2cccs2)S(=O)(=O)c2ccccc2)cc1	1.5	0.71
O=C(NN=C/C(Br)=C/c1ccccc1)c1cccs1	4.5	0.56
COc1cc(C=NNc2nc3ccccc3[nH]2)cc(OC)c1OC	-12	0.65
O=C1NCCCC1C(=O)NN=Cc1ccccc1[N+](=O)[O-] (centres undefined)	4.9	0.67
O=C(NN=Cc1c(O)ccc2ccccc12)c1cccnc1	5.0	0.67
COc1ccccc1NC(=O)c1cc2ccccc2oc1=NO	5.2	0.66
N#Cc1cnn(Cc2ccccc2)c1N=CN1CCOCC1	-1.7	0.71
Cc1ccccc1CN(c1ccc(C(=O)NN=Cc2ccc(OCC(N)=O)cc2)cc1)S(C)(=O)=O	2.8	0.69
CC(NC(=O)c1ccccc1)C(=O)NN=Cc1ccc(O)cc1 (centres undefined)	1.0	0.69
Cc1cc([N+](=O)[O-])c(-c2ccc(C=Nn3cnnc3)o2)cc1Cl	1.3	0.62
COc1ccc(C=NNC(=O)c2nnn(-c3nonc3N)c2CN(C)c2ccccc2)cc1	2.8	0.68
Cc1ccc(-c2ccc(C=N/N=C3/NC(=O)C(CC(=O)O)S3)o2)c([N+](=O)[O-])c1 (centres undefined)	25*	0.72
S=c1[nH]c(-c2ccccc2)cn1N=Cc1ccc(Br)cc1	-24	0.7
CCn1nc(C)c(C=NNC(=O)Cn2cncn2)c1C	-3.6	0.71
COc1ccc(C(=O)NN=Cc2ccc(OC)c(COc3ccccc3Br)c2)c(OC)c1	1.6	0.72
Cc1ccc(S(=O)(=O)N=C(Nc2nc(C)cc(C)n2)N2CCOCC2)cc1	-7.8	0.74
C=CCc1cccc(C=NNC(=O)C[n+]2ccccc2)c1O	7.2	0.7
O=C(C[n+]1ccccc1)NN=Cc1ccc(Cl)c(Cl)c1	12	0.68
O=C(NN=C/C=C/c1ccc([N+](=O)[O-])cc1)C1COc2ccccc2O1 (centres undefined)	11	0.64
COc1ccc(C=NNC(=O)C2CCN(c3ncc(C(F)(F)F)cc3Cl)CC2)cc1	5.8	0.73
CCOC(=O)NN=C/C=C/c1ccccc1[N+](=O)[O-]	4.2	0.64
COc1cc(C=NNc2nc3ccccc3[nH]c2=O)ccc1O	1.0	0.69
O=C(NN=Cc1cc2c(cc1Br)OCO2)c1ccccn1	-5.2	0.7
O=C(NN=Cc1ccc(Br)s1)c1cccnc1	6.1	0.72
SMILES	UCH37 inh	Ecoli growth
CC(=O)Nc1cccc(C(C)=NNC(N)=S)c1	5.5	0.66
CC[N+](C)(CC)CCCC(=NO)C(O)(c1ccccc1)c1ccccc1	-0.8	0.66
CC(=NNC(=O)c1cc(C)nc2ccccc12)c1ccccn1	1.1	0.65
CC(=O)Nc1ccc(NC(=O)CC(C)=NNC(=O)c2cccc3ccccc23)cc1	1.2	0.68
O=S(=O)(NN=Cc1cccn1-c1ccccc1)c1ccc2ccccc2c1	2.6	0.7
COc1ccc(C=NNC(=O)c2ccccc2F)cc1CN1CCN(c2ccc(F)cc2)CC1	-1.9	0.69
COc1ccc(Br)cc1C=NNC(=O)c1ccc2nc[nH]c2c1	3.5	0.64
COc1ccccc1NS(=O)(=O)c1ccc(NN=C/C=C/c2ccccc2[N+](=O)[O-])c([N+](=O)[O-])c1	12	0.72
CCn1c(C=Nc2nc3ccccc3n2C)nc2ccccc21	-0.6	0.73
COc1ccc(/C=C/C(=O)NCC(=O)NN=C(C)Cc2ccccc2)cc1	4.8	0.65
CC(=NNc1nc(C)cc(-c2ccccc2)n1)c1cccc(N)c1	4.0	0.67
Nc1nc2ccccc2n1N=Cc1ccc2c(c1)OCO2	7.3	0.65
COc1cc(C=Nn2c(C3CCCCC3)n[nH]c2=S)ccc1O	2.5	0.62
COc1ccccc1N1CCN(N=Cc2ccc(Cl)c([N+](=O)[O-])c2)CC1	2.4	0.7
CC(=NNC(=O)c1nn(C)cc1Br)c1cccc(NC(=O)C(C)(C)C)c1	1.1	0.72
Cc1occc1C(=O)NN=Cc1cccnc1	1.1	0.68

Source: PubChem (ICCB-Longwood Screening Facility, Harvard Medical School)
